VACV E9 pol inh: vaccinia E9 polymerase processive synthesis inhibitors, primary screen, biochemical, absorbance. in vitro processive DNA synthesis, absorbance read-out; active compounds read low; some inactives read as strong as hits. normalized absorbance, % (test concentration not listed). 46,000 tested, 0.94% active. AID 493162, 2011;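 active means replicate mean up to 90% and picked by the depositor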;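 further: 100% = median of the test wells of a plate; 100 nL library stock went into each well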
Starred values were filed as active, the others as inactive. A portion of the library; the hit share may differ from the screen's.

SMILES	VACV E9 pol inh
CCSc1ccc2nnc(-c3ccc(C)cc3)n2n1	74.9
CCc1cc(-c2[nH]ncc2-c2nc3ccccc3n2C)c(O)cc1O	98.9
c1ccc(CNc2c3c(nc4nncn24)CCC3)cc1	103.9
Cc1ccnc(NCc2ccc(Br)cc2)c1	109.0
CCOC(=O)c1nc2c([nH]1)C(c1ccncc1)C(C#N)=C(N)O2 (stereo unspecified)	100.6
O=C(O)[C@H]1CCCC[C@H]1C(=O)N[C@H]1CCCC[C@@H]1NC(=O)[C@H]1CCCC[C@H]1C(=O)O	100.4
COc1ccc(C2=[N+]([O-])C(C)(C)C(c3ccccc3)=N2)cc1	100.2
CC1(C2(C)NC(=S)N(c3ccccc3)N2)COCOC1 (stereo unspecified)	100.5
CCOC(=O)C1CCN(C(=O)N2c3ccccc3Sc3ccccc32)CC1	100.1
COc1ccc(OCC(=O)Nc2ccccc2C(=O)N2CCOCC2)cc1	97.0
CC(=O)Nc1ccc(OCC(O)CN2CCN(c3ccc(F)cc3)CC2)cc1 (stereo unspecified)	108.1
O=C(/C=C/c1ccc(-c2cccs2)s1)N1CCSCC1	95.3
CCCOc1ccc(C(=O)Nc2ccc(NC(=O)c3ccco3)cc2)cc1	100.3
COCCN(C(=S)Nc1cc(F)cc(F)c1)C1CCN(C(C)=O)CC1	102.7
Cc1cc(C)n2c(SCc3ccccc3)nnc2n1	104.5
O=C(CSc1c2c(nc3ccccc13)CCC2)Nc1cccc(Cl)c1	100.8
N#Cc1cccn1-c1nccs1	94.8
O=c1oc2c(CN3CCCC3)c(O)ccc2c2c1CCCC2	96.1
CCN(CC)c1ccc(C(=O)OCC(=O)c2ccccc2)cc1	100.7
O=c1n(-c2cccc(Cl)c2)c(=O)n2n1CCC2	100.1
OC(COc1ccccc1Br)CN1CCNCC1 (stereo unspecified)	96.8
O=C(O)C1CCN(C(=O)NC2CCCCC2)CC1	99.4
CCOC(=O)c1c[nH]c2ccc(C(F)(F)F)cc2c1=O	98.3
CCC(C(=O)Nc1ccc(S(N)(=O)=O)cc1)c1ccccc1 (stereo unspecified)	97.9
CC1(C)CC(=O)c2c(SCC(=O)NN)sc(C#N)c2C1	101.5
Cc1cc(C)n(-c2ccc3nncn3n2)n1	101.4
O=C(c1csc2c1CCCC2)N1CCOCC1	100.2
Clc1ccccc1/C=C/C=Nc1ccc(N2CCOCC2)cc1	100.3
CCOC(=O)c1ccc(NC(=O)c2ccc(C)cc2)cc1	99.4
CCc1ccccc1NC(=O)CCNS(=O)(=O)c1ccc2[nH]c(=O)ccc2c1	105.4

Taken from the entries so far for reference:
SMILES	VACV E9 pol inh
CC1(C)CC(=O)c2c(SCC(=O)NN)sc(C#N)c2C1	101.5
Cc1cc(C)n(-c2ccc3nncn3n2)n1	101.4

(continued)
SMILES	VACV E9 pol inh
CC(C=C1C(=O)NC(=O)NC1=O)c1ccccc1 (stereo unspecified)	107.8
Cc1c(C(=O)O)cc(-c2ccccc2)n1CCSCc1c(F)cccc1Cl	81.6*
CCCN(CCC)Cc1c(C(=O)O)nnn1-c1nonc1N	97.2
CCCc1nc2ccccc2n1CC(=O)N1CCc2ccccc2C1	106.9
O=S(=O)(Nc1ccc(C(O)(C(F)(F)F)C(F)(F)F)cc1)c1ccccc1	97.9
CCc1ccccc1NC(=O)Cc1noc2ccccc12	97.1
CCOC(=O)c1c(C)sc2c(C)c(C)[nH]c12	99.8
Cc1ccc2c(c1)c1c(n2CCc2ccncc2)CCN(C)C1	96.6
O=C(NCCN1CCOCC1)c1cn2ccccc2n1	88.8
Cc1cc(N2CCCC2)nc2ccccc12	76.9
O=C1OC/C(=C(\O)c2ccc(Cl)cc2)C1=O	94.8
Cc1ccc(-c2cc(N)n[nH]2)cc1	102.0
CN(CCO)S(=O)(=O)c1ccc2c(c1)C(=NO)c1cc(S(=O)(=O)N(C)CCO)ccc1-2	99.7
Cc1c(Cl)cccc1N=Cc1nc(-c2ccccc2)oc1O	101.0
Cc1nc2sc(C(c3ccccc3)N3CCC(C)CC3)c(O)n2n1 (stereo unspecified)	99.7
CC(C)c1ccccc1NC(=O)COC(=O)Cc1ccccc1F	101.0
Cc1ccc(C(=O)OCC2OC(O)C(O)C2OC(=O)c2ccc(C)cc2)cc1 (stereo unspecified)	102.1
CCOc1ccc(C(CC(=O)O)NC(=O)c2c(-c3ccccc3)noc2C)cc1 (stereo unspecified)	106.3
CCN(CC)C(=O)Cn1cc(S(=O)(=O)CC(=O)NCc2ccc(F)cc2)c2ccccc21	95.3
CCn1c(Cc2cccn2C)nnc1SCC(=O)c1ccc(C)cc1	105.2
CC(C)(C)c1cc(O)cc(C(C)(C)C)c1CN1CCN(CCN)CC1	100.3
Cc1ccccc1COc1ccc2oc(-c3ccccc3)c(C(=O)O)c2c1	87.1*
O=C(c1ccccc1)N(Nc1ccccc1)c1ccccc1	100.3
O=C(NC(=S)N(Cc1cccnc1)Cc1ccccc1Cl)c1ccccc1	100.6
O=C1/C(=C\c2ccccc2)N=C2SCCCCN12	103.0
CCCNC(=O)Nc1[nH]c(C)c(C(=O)OCC)c1C	101.6
Cc1ccc(C(C)C)c(OCCN2CC(C)CC(C)C2)c1 (stereo unspecified)	91.6
Cc1ccc2cc(OC(=O)c3ccc(Oc4cc(Cl)cc(Cl)c4)o3)ccc2n1	104.1
CCCCn1c(=O)c(CCC(=O)O)nc2ccccc21	97.8
CCCCC[C@H]1C(=O)O[C@H](C)[C@H](NC(=O)c2cccc(NC=O)c2O)C(=O)O[C@@H](C)[C@@H]1OC(=O)CC(C)C	103.7
CN(C)/C=C/C(=N)SCc1c(F)cccc1Cl	75.0*
Cc1ccccc1CN1CCc2c(OCC(=O)N3CCOCC3)cccc2C1=O	100.5
O=C(CCCn1sc2ccccc2c1=O)N1CCc2ccccc21	94.9
CSC(=NC(=O)c1c(Cl)cccc1Cl)N1CCCC1	108.4
COCCn1c(=NC(=O)c2ccccc2OC)sc2cc(OC)ccc21	101.1
Cc1ccnc(NC(=O)c2cccs2)c1	99.9
Clc1ccc(-c2nnn3c2nc(Cl)c2ccccc23)cc1	101.1
O=C(COC(=O)Cc1cccc(C(F)(F)F)c1)NCc1ccco1	99.9
CCN(CC)C(=O)c1cn(-c2ccccc2)nc1-c1ccccc1	100.0
Cc1oc(-c2ccccc2)nc1CS(=O)CC(=O)N(C)Cc1ccccc1 (stereo unspecified)	91.1
Cc1ccc(O)cc1	100.3
C1=C(c2ccccc2)CC(c2ccccc2)=NN=C1c1ccccc1	88.3
COc1ccc2nc(N=C(N)N)nc(C)c2c1	36.5*
CCS(=O)(=O)c1nc(S(=O)(=O)c2ccc(Cl)cc2)c(N2CCCC2)s1	102.9
COc1ccc(C=C2C(=O)c3ccccc3C2=O)cc1	99.6

Given with bars between the fields: part of the list above
SMILES | VACV E9 pol inh
COCCn1c(=NC(=O)c2ccccc2OC)sc2cc(OC)ccc21 | 101.1
Cc1ccnc(NC(=O)c2cccs2)c1 | 99.9
Clc1ccc(-c2nnn3c2nc(Cl)c2ccccc23)cc1 | 101.1
O=C(COC(=O)Cc1cccc(C(F)(F)F)c1)NCc1ccco1 | 99.9
CCN(CC)C(=O)c1cn(-c2ccccc2)nc1-c1ccccc1 | 100.0
Cc1oc(-c2ccccc2)nc1CS(=O)CC(=O)N(C)Cc1ccccc1 (stereo unspecified) | 91.1
Cc1ccc(O)cc1 | 100.3
C1=C(c2ccccc2)CC(c2ccccc2)=NN=C1c1ccccc1 | 88.3
COc1ccc2nc(N=C(N)N)nc(C)c2c1 | 36.5*
CCS(=O)(=O)c1nc(S(=O)(=O)c2ccc(Cl)cc2)c(N2CCCC2)s1 | 102.9

Following part
SMILES	VACV E9 pol inh
O=c1[nH][nH]c(=S)n1Cc1ccccc1	101.2
CCn1c(=NC(=O)CSCC(=O)Nc2cc(C)on2)sc2ccccc21	103.2
COCCn1c(=O)[nH]c2cc(C(=O)N3CCN(Cc4ccc5c(c4)OCO5)CC3)ccc2c1=O	95.1
CCOC(=O)c1cccn1-c1ncc(C(F)(F)F)cc1Cl	116.8
Cn1ccnc1SCc1cn2ccccc2n1	103.3
N#CC1=C(N)SC(N)=C(C#N)C1c1ccncc1	99.9
Cc1oc(-c2cccs2)nc1CN1C(=O)CN=C(c2ccccc2)c2ccccc21	93.5
CC(C)(C)NCC(O)COc1c(Br)ccc2c1sc1nc3n(c(=O)c12)CCCCC3 (stereo unspecified)	100.6
O=c1nc(-c2ccccc2)c2ccccc2[nH]1	90.6
O=C(Nc1ccc(C(F)(F)F)cc1)Nc1ccc(C(F)(F)F)cc1	83.1
Cc1ccc(NCC(O)CN2c3ccccc3Sc3ccccc32)c(C)c1 (stereo unspecified)	100.1
CC(C)CN(CC(C)C)CN1C(=O)c2ccccc2C1=O	94.5
O=C(COC(=O)C1CCCC1)c1ccccc1Br	87.0
N#Cc1c(-n2ccnc2)cccc1-n1ccnc1	110.1
CCCC(=O)Nc1ccc(-c2cn3ccccc3n2)cc1	100.2

The closing twelve records of the section above come first, to join the parts:
SMILES	VACV E9 pol inh
CCOC(=O)c1cccn1-c1ncc(C(F)(F)F)cc1Cl	116.8
Cn1ccnc1SCc1cn2ccccc2n1	103.3
N#CC1=C(N)SC(N)=C(C#N)C1c1ccncc1	99.9
Cc1oc(-c2cccs2)nc1CN1C(=O)CN=C(c2ccccc2)c2ccccc21	93.5
CC(C)(C)NCC(O)COc1c(Br)ccc2c1sc1nc3n(c(=O)c12)CCCCC3 (stereo unspecified)	100.6
O=c1nc(-c2ccccc2)c2ccccc2[nH]1	90.6
O=C(Nc1ccc(C(F)(F)F)cc1)Nc1ccc(C(F)(F)F)cc1	83.1
Cc1ccc(NCC(O)CN2c3ccccc3Sc3ccccc32)c(C)c1 (stereo unspecified)	100.1
CC(C)CN(CC(C)C)CN1C(=O)c2ccccc2C1=O	94.5
O=C(COC(=O)C1CCCC1)c1ccccc1Br	87.0
N#Cc1c(-n2ccnc2)cccc1-n1ccnc1	110.1
CCCC(=O)Nc1ccc(-c2cn3ccccc3n2)cc1	100.2
C=CCn1c(COc2ccccc2)n[nH]c1=S	100.3
CC(C)(C)C(=O)c1sc2nc(-c3cccs3)cc(C(F)(F)F)c2c1N	97.2
O=S1(=O)CC2(N3CCOCC3)CCCCCCC21 (stereo unspecified)	97.9
CN(C)CC(O)Cn1c2ccc(Br)cc2c2cc(Br)ccc21 (stereo unspecified)	26.6*
CCOC(Cn1c(C(C)O)nc2ccccc21)OCC (stereo unspecified)	93.8
COc1ccc(CCNC(=O)C2CCN(Cc3nc(-c4ccccc4F)oc3C)CC2)cc1OC	102.4
CNc1oc(-c2ccc(Cl)cc2)nc1S(=O)(=O)c1ccc(C)cc1	102.3
O=C(Nc1ccccc1)Nc1ccc(C2SCCS2)cc1	98.1
COc1ccc(/C=C2\Sc3ccc(C(=O)N4CCOCC4)cc3N(C)C2=O)cc1OC	95.5
CCN1C(=O)CCC(C(=O)O)C1c1ccc(OC)cc1 (stereo unspecified)	111.2
COC(CNC(=O)Cn1nc(-c2ccccc2)c2cc(Cl)ccc21)OC	90.8
COCCN1Cc2cccc(C(=O)Nc3ccc4c(C)cc(=O)oc4c3)c2C1=O	102.1
CCC(C)NC(=O)Cn1ncn2c(cc3sc(C)cc32)c1=O (stereo unspecified)	100.4
CC(=O)N1CCC(C(=O)c2c(C)c(C)c(C)c(C)c2C)CC1	119.1
CCN1C(=O)c2cccc3c(S(=O)(=O)Nc4ccc(C)cn4)ccc1c23	99.9
CCOC(=O)N1CCC(NC(=O)c2cc(C)on2)CC1	80.0
CCc1cc2c(=O)c(-c3nc4ccccc4s3)coc2cc1O	99.0
C=CCN1CC(c2nc3ccccc3n2CC(C)C)CC1=O (stereo unspecified)	95.7
C=CCNC(=O)C1CCN(S(=O)(=O)CC)CC1	106.0
CN(C)C=Nc1ccc(Oc2cncc(Cl)c2)nc1	110.3
O=C(Oc1ccc2ccc(=O)oc2c1)c1ccccc1	100.0
N#CCCN1CCCC2(CCCC2)C1	100.5
CC(C)C(=O)Nc1nc(-c2ccccc2)c(C(=O)c2ccccc2)s1	101.0
CC(C)Cc1ccc(C(C)C(=O)Nc2cccc(-c3cnco3)c2)cc1 (stereo unspecified)	105.8
C=CCn1c(=N)n(CC(=O)c2ccc(-c3ccccc3)cc2)c2ccccc21	99.7
COC(=O)c1c(C)oc2ccc(OCc3ccc(Br)cc3)cc12	100.4
COc1ccc(-c2nc3ncccn3c2Nc2ccccc2)cc1	92.6
